Choline anaer gr: blocks anaerobic gram-negative growth on choline; Gram-negative bacterium anaerobic choline minimal medium, absorbance growth; active compounds read low; many inactives read as strong as hits in the columns shown; calls only; actives 0.2% (n = 55,000); AID 1963822;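 active = growth z-score on choline under -2 at 7 or 20 h with little or no fall on glycerol, limits in tiers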;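 note: stock transfer was 300 nL into about 50 µL; the organism is E. coli; final concentration not given here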
Choline anaer gr early: further read-out of Choline anaer gr, marked with its call; z-score; measured here: choline growth z-score, timepoint 1;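 score of optical density at 7 h as mean of two plates; lower means less growth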
* = called active by the depositor; i = inactive; + = active, no number; & = joins results of further samples.

item	canonical_smiles	Choline anaer gr early	Choline anaer gr
1	COC(=O)C1=CN(C2CC2)c2cc(N3CCN(C)CC3)c(F)cc2S1(=O)=O	-0.01	i
2	COc1cc(-c2ccccc2)nc2ccc(NS(=O)(=O)c3ccc(NC(C)=O)cc3)cc12	-0.08	i
3	CC(C)c1nn2c(S(=O)(=O)N3CCCCCC3)c(C(C)C)nc2s1	-1.5	i
4	Cc1ccc(C2CCCCCN2S(C)(=O)=O)s1 (stereo not given)	0.6	i
5	CCC(=O)N1CCCN(S(=O)(=O)C(C)C)CC1	0.71	i
6	CC(C)=CCC/C(C)=C/CC/C(C)=C/CSCC(=O)O	-3.1*	+
7	O=C(Nc1cccc(Cl)c1)C1CCN(c2nccn3nc(-c4ccccc4)cc23)CC1	-1.1	i
8	Cc1[nH]c2[nH]n(-c3ccccc3)c(=O)c2c(=O)c1C	-1.4	i
9	O=C(C1CC(=O)N(C2CCCC2)C1)N1CCC(c2nc(-c3ccc(F)cc3)no2)CC1 (stereo not given)	-0.57	i
10	COCCc1nnc2n1N=C(c1ccc(Cl)cc1)CS2	1.6	i
11	CC(C)(C)NC(=O)[C@@H]1CN(Cc2cccnc2)CCN1C[C@@H](O)C[C@@H](Cc1ccccc1)C(=O)N[C@H]1c2ccccc2C[C@H]1O	0.49	i
12	Cc1cc(NC2CCCC2)n2nc(C(F)(F)F)c(-c3ccc(F)cc3)c2n1	0.28	i

Arranged by molar mass (rising): part of the list above.
item	canonical_smiles	Choline anaer gr early	Choline anaer gr
5	CCC(=O)N1CCCN(S(=O)(=O)C(C)C)CC1	0.71	i
10	COCCc1nnc2n1N=C(c1ccc(Cl)cc1)CS2	1.6	i
3	CC(C)c1nn2c(S(=O)(=O)N3CCCCCC3)c(C(C)C)nc2s1	-1.5	i
12	Cc1cc(NC2CCCC2)n2nc(C(F)(F)F)c(-c3ccc(F)cc3)c2n1	0.28	i
9	O=C(C1CC(=O)N(C2CCCC2)C1)N1CCC(c2nc(-c3ccc(F)cc3)no2)CC1 (stereo not given)	-0.57	i
2	COc1cc(-c2ccccc2)nc2ccc(NS(=O)(=O)c3ccc(NC(C)=O)cc3)cc12	-0.08	i
11	CC(C)(C)NC(=O)[C@@H]1CN(Cc2cccnc2)CCN1C[C@@H](O)C[C@@H](Cc1ccccc1)C(=O)N[C@H]1c2ccccc2C[C@H]1O	0.49	i

Further compounds
item	canonical_smiles	Choline anaer gr early	Choline anaer gr
13	COC(=O)c1sccc1NC(=O)Cn1ccn2nc(-c3ccc(OC)c(OC)c3)cc2c1=O	-0.21	i
14	Cc1ccc(-c2csc3ncn(CCCN(C)C)c(=O)c23)cc1	-0.7	i
15	COc1ccc(-c2cc(C(F)(F)F)n3ncc(C(=O)N(C)Cc4cnn(C)c4C)c3n2)cc1OC	-0.41	i
16	C[C@H]1O[C@H](O[C@H]2[C@H](O)[C@@H](O)[C@@H](O[C@H]3[C@H](O)[C@@H](O)[C@H](O)O[C@@H]3CO)O[C@@H]2CO)[C@H](O)[C@@H](O)[C@@H]1N[C@H]1C=C(CO)[C@@H](O)[C@H](O)[C@H]1O	-0.12&0.12	i
17	COc1ccccc1N1CCN(C(=O)CSc2nccc3c2ccn3Cc2ccc(C)cc2)CC1	0.36	i
18	O=C(NCCO)c1cnc2sc3c(n2c1=O)CCCC3	0.76	i
19	CNC(=O)C1=Cc2cc(Br)ccc2OC1	0.51	i
20	CCn1c(=O)c(=O)n(CC)c2cc(S(=O)(=O)c3ccc(F)cc3)c(NC(C)=O)cc21	0.89	i
21	CN(C)C(=O)C1CC(=O)N(C2CCCCCC2)C1 (stereo not given)	0.82	i
22	N=C1C(c2nc3ccccc3[nH]2)=C(O)CN1c1ccccc1	1.2	i
23	Cn1c(=O)c(=O)n(C)c2cc(N3CCOCC3)c(NS(=O)(=O)c3ccc(C4CCCCC4)cc3)cc21	1	i
24	Cc1nnc(-c2csc(S(=O)(=O)Nc3cccc(Cl)c3)c2)o1	-0.42	i
25	O=C(Nc1ccc2c(c1)OCO2)c1nnc(C2CCN(C(=O)C3CC3)CC2)s1	1	i
26	Cc1nn2c(S(=O)(=O)N3CCC4(CC3)OCCO4)c(C)nc2s1	0.35	i
27	O=S(=O)(NCc1nc2cccnc2n1C1CC1)c1ccc2c(c1)CCCC2	-2.1	i
28	CN(Cc1ccsc1)C(=O)NC(C)(C)C	-0.44	i
29	C=CCn1c(CN(c2ccc(F)cc2)S(C)(=O)=O)nnc1SCC(=O)c1cc(C)n(C)c1C	0.43	i
30	Oc1cc2c(cc1O)CN(C(=S)NCCc1ccc(Cl)cc1)CCC2	-0.4&0.34&0.04	i
31	C=CCn1c(=O)c(N2CCC(NC(=O)NC)CC2)nc2cccnc21	0.19	i
32	Cc1ccccc1C1CC(c2ccc(NS(C)(=O)=O)cc2)=NN1C(=O)CCCC(=O)O (stereo not given)	-0.37	i
33	CN(C)CC/C=C1\c2ccccc2Sc2ccc(Cl)cc21	-1.3	i
34	CCC(SC1=Nc2ccccc2NC(CC(=O)OC)=C1)C(=O)NC1CCC(C)CC1 (stereo not given)	-0.42	i
35	Cc1nc2nc3c(c(Nc4ccc(F)c(Cl)c4)n2n1)CCCC3	1.7	i
36	CN1C(=O)C2(CCN(S(=O)(=O)c3ccc4c(c3)oc(=O)n4C)C2)c2ccccc21 (stereo not given)	0.79	i
37	Cc1ccc(C(C)NC(=O)c2ccc(-c3ccc(F)cc3)nc2)cc1 (stereo not given)	0.09	i
38	Cc1nn2c(NCc3ccccn3)cc(C(C)(C)C)nc2c1-c1ccc(F)cc1	1.4	i
39	COC(=O)C1CCN(c2ncnc3c2nnn3C)CC1	-1.2	i
40	CC(Sc1nc2c(c(=O)[nH]1)CCCC2)C(=O)Nc1ccccc1 (stereo not given)	-1.1	i
41	COc1ccc(N2C(=O)c3cc4sccc4n3CC2(C)C(=O)NC2CCC(C)CC2)cc1OC (stereo not given)	-0.63	i
42	O=S(=O)(c1cccc(Cl)c1)N1CCN(Cc2nc3cccnc3n2-c2ccccc2)CC1	-0.64	i
43	Cc1sc(-c2ccno2)cc1S(=O)(=O)NC1CCCC1	-0.15	i
44	CN(C)c1cccc(C(=O)Nc2cccc3nsnc23)c1	0.62	i
45	Cc1ccc(NC(=O)CCc2nc(CSc3n[nH]c(-c4ccccc4)n3)no2)cc1Cl	0.99	i
46	Cc1nn(-c2ccc(F)cc2)c(C)c1S(=O)(=O)NCCN(C)C	-0.68	i
47	CCCCNC(=O)Cc1c(C)nc2nc(CC)nn2c1C	-1.8	i
48	Cc1cc(C)cc(NS(=O)(=O)c2c(C)sc(C)c2-c2n[nH]c(C)c2C)c1	1.1	i
49	Cc1noc(Cn2c(=O)c3ccccc3n(CC(=O)Nc3ccccc3C)c2=O)n1	-0.47	i
50	COc1ccc(Br)cc1CNC(=O)COc1nc(C)nc2onc(-c3cccc(F)c3)c12	-0.57	i
51	Cc1cc(N2CCC(C)CC2)n2nc(-c3ccc(Cl)cc3)nc2n1	0.74	i
52	COCCn1c(SCc2nc(-c3ccccc3C)no2)nc2cc3c(cc2c1=O)OCO3	-0.63	i
53	CCCCSc1cc2c(cc1NC(C)=O)n(C)c(=O)n2C	-0.15	i
54	CC(C)Cc1cc(-c2nn3c(COc4ccc(Cl)cc4)nnc3s2)n[nH]1	0.6	i
55	O=S1(=O)C[C@H](N2CCN(c3ncccn3)CC2)[C@@H](S(=O)(=O)c2cccs2)C1	-1.7	i
56	Cc1ccc(-c2c(C(F)(F)F)nn3c(NC(C)C)cc(C)nc23)cc1	0.18	i
57	CCCCN(C)C(=O)c1ccnc(N2CCC(C)CC2)n1	0.23	i
58	Cc1csc(NC(=O)C2CCN(c3ccc4cc(S(=O)(=O)N5CCCCC5)ccc4n3)CC2)n1	-0.26	i
59	Cc1sc(C)c(S(=O)(=O)N2CCCC2)c1-c1cc(C(F)(F)F)on1	-0.44	i
60	Cc1cccc2c(=O)c(NC(=O)NCCO)c[nH]c12	-1.3	i
61	O=C1CCCc2c1cnc1c(C(=O)N3CCC4(CC3)OCCO4)cnn21	-2.2	i
62	C[C@@H](O)[C@H]1C(=O)N2C(C(=O)O)=C(SCCN=CN)C[C@H]12	-0.32&-0.28&0.86	i
63	COc1ccccc1NC(=O)NCc1c(C)nn(-c2ccccc2)c1-n1cccc1	0.75	i
64	Cc1ccc2c(c1)c(=O)n(CC(C)C)c1nnc(SCc3ccccc3C)n21	-0.14	i
65	CCOc1ccc2nc3cc(N)ccc3c(N)c2c1	-0.72&-0.99	i
66	Cc1ccc(S(=O)(=O)N2CCN(c3cc(=O)n4nc(-c5ccccc5C)sc4n3)CC2)c(C)c1	-1.6	i
67	CCCN1C(=O)c2oc3ccccc3c2OCC1(C)C(=O)NCc1ccccc1OC (stereo not given)	-1.1	i
68	CN(CC(=O)N1CCN(C2CCCCC2)CC1)S(=O)(=O)c1cc2c(cc1Cl)NC(=O)CO2	-0.46	i
69	Cc1cccc(-c2nc(-c3ccc(-c4nc(C)no4)cc3)no2)c1	-1.1	i
70	CCCNC(=O)c1cn(CC)nc1S(=O)(=O)N1CCSCC1	0.35	i
71	Cc1c(NC(=O)c2ccccc2Cl)c(-n2cnnc2)nn1C	-0.98	i
72	O=C(O)c1cc(N2CCN(c3ncccn3)CC2)nc2ccc(NS(=O)(=O)c3cc(F)ccc3F)cc12	-0.2	i

Later entries:
item	canonical_smiles	Choline anaer gr early	Choline anaer gr
73	Cc1ccc2c(n1)sc1c(=O)n(-c3ccccc3)nnc12	1.4	i
74	CC(C)[C@@H]1CC[C@@H](C)C[C@@H]1P(=O)(c1ccccc1)c1ccccc1	0.73&-0.37	i
75	O=C(O)CCNC(=O)c1ccc(N=Nc2ccc(O)c(C(=O)O)c2)cc1	0.26&-0.36	i
76	O=C(NCCCc1ccccc1)c1cc(-c2ccccn2)nc2ccccc12	1.4	i
77	CN1Cc2cccc(C(=O)Nc3ccc(N4CCOCC4)cc3)c2C1=O	0.44	i
78	COc1cc(NC(=O)Cn2c3ccccc3n3c(=O)cc(-c4cccc(OC)c4)nc23)cc(OC)c1	-1.5	i
79	CC(C)n1cnc2nc(CSc3ccccc3NC(=O)c3ccccc3)cc(=O)n21	0.17	i
80	COc1ccccc1Oc1cc(-c2cccc(C(=O)NCc3ccccc3C)c2)ncn1	0.45	i
81	CC(C)c1nc(CN2CCC3(CC2)OCCO3)cc(=O)[nH]1	0.92	i
82	CCOC(=O)c1cc(NC(=O)N(C)C2CCCCC2)c(C)nc1C	-0.31	i
83	CCOC(=O)c1c(C)c(-c2ccccc2)n(CC(=O)N2CCC(Cc3ccccc3)CC2)c1C	0.78	i
84	Cc1ccc(C)c(NS(=O)(=O)c2c(C(=O)N3CCCC3)c(C)n(C)c2C)c1	0.36	i
85	Cc1cc(OCC(=O)NCCC(C)C)nc2c1c(C)nn2C	1.1	i
86	Cc1cc(C(=O)N2CCOCC2)on1	0.66	i
87	CCC(C)NC(=O)N1CCCN(C2=NS(=O)(=O)C(c3ccc(Cl)cc3)=C2C)CC1 (stereo not given)	0.04	i
88	Cc1cccc(CN=C2Nc3ccccc3NC23CCCCCC3)c1	-1.4	i
89	CC(C)CCN1C(=O)c2cc3occc3n2CC1(C)C(=O)NC1CCCC(C)C1C (stereo not given)	1.5	i
90	Cc1ccccc1CNC(=O)C1CCCN(S(=O)(=O)N2CCCC(C(=O)NCc3ccccc3C)C2)C1 (stereo not given)	-0.2	i
91	CCOC(=O)C1CCCN(c2ncc(S(=O)(=O)c3ccc(C)c(C)c3)c(N)n2)C1 (stereo not given)	-0.22	i
92	COc1ccccc1CC(=O)Nc1ccc(-c2noc(COc3ccc(Cl)c(C)c3)n2)cc1	0.49	i
93	c1ccc(-c2n[nH]c3c2oc2ccccc23)cc1	-0.09	i
94	Cc1ccc(C)c(NC(=O)Cn2c(=O)cc(C(=O)NCc3ccccc3)c3ccccc32)c1	0.98	i
95	C=CCN1CCc2cc(O)c(O)cc2C(c2ccccc2)C1 (stereo not given)	-1.5&-0.08	i
96	CCN(CC)C(=O)C1CCC(Cn2c(=O)c3sccc3n(CC(=O)NC(C)C)c2=O)CC1 (stereo not given)	-0.5	i
97	Cc1nc(-c2cc3cccc(C)c3nc2N2CCOCC2)no1	-0.89	i
98	O=C(Cn1cnc2sc3c(c2c1=O)CCCC3)Nc1ccccc1	-1.2	i
99	Brc1ccc(Nc2nc(-c3ccc4c(c3)OCO4)cs2)nc1	-0.57	i
100	CCOC(=O)CC1=CC(SCC(=O)Nc2ccc3c(c2)OCCO3)=Nc2cc(C)c(C)cc2N1	0.24	i
101	Cc1ccc(S(=O)(=O)N2CC(=O)N(c3ccc(C)c(F)c3)C(C)(C(=O)NC3CCCC3)C2)cc1 (stereo not given)	0.53	i
102	Cc1cccc(NC(=O)c2ccc3c(c2)NC(=O)CO3)c1	-1.4	i
103	CCCS(=O)(=O)NCc1cccn1Cc1ccc(C)cc1	-1.1	i
104	CC1(C(=O)NCc2ccccc2)Cn2c(cc3occc32)C(=O)N1Cc1ccc(Cl)cc1 (stereo not given)	0.48	i
105	O=C(Cc1ccccc1)NCCOc1ccc(-c2ccccc2)nn1	0.23	i
106	Cc1cc(C2CCCN2C(=O)c2cccs2)on1 (stereo not given)	-0.45	i
107	NS(=O)(=O)c1ccc(CCNC(=O)CN2C(=O)c3cccnc3Oc3ccccc32)cc1	0.42	i
108	CN1C(=O)c2ccccc2C(C(=O)O)C1c1ccc(F)cc1 (stereo not given)	-0.29	i
109	CN(CCc1noc(-c2ccc(C(=O)N3CCCC3)cc2)n1)C(=O)NC1CCCC1	-1.1	i
110	Cc1cc(C)c2c(n1)sc1c(=O)n(CC(=O)Nc3ccc4c(c3)OCO4)cnc12	0.82	i
111	O=C(NCCc1ccccc1)c1cc2c(s1)CS(=O)(=O)C2	0.34	i
112	O=C(NCc1c(-c2ccc(Cl)cc2)nc2n1CCS2)C1CCCCC1	0.24	i
113	O=C(NCCN1CCOCC1)c1nc(-c2ccc(S(=O)(=O)N3CCCCC3)cc2)no1	-0.22	i
114	CCCCN1C=C(OC(=O)c2ccc(C)cc2)c2ccccc2S1(=O)=O	2.7	i

Assay outcomes from PubChem BioAssay.

A portion of the library; the hit share may differ from the screen's.
